AF4-AF9 inh – blocks AF4 peptide binding to human AF9. 0.47% of 350,000 active. AlphaScreen, biotin-AF4 peptide binding to FLAG-AF9. AID 651704. inhibition, % at 10 µM;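 active = every replicate reaching a set inhibition limit, whatever the replicate mean, cut at about 25% in these data; inconclusive = mean inhibition reaches that limit but some replicates miss it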;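 note: 0% = plate neutral control median and 100% = total signal loss; the record names both 10 and 1 µM as test concentration; the first replicate is given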
Target sequence (P42568 whole entry, looked up): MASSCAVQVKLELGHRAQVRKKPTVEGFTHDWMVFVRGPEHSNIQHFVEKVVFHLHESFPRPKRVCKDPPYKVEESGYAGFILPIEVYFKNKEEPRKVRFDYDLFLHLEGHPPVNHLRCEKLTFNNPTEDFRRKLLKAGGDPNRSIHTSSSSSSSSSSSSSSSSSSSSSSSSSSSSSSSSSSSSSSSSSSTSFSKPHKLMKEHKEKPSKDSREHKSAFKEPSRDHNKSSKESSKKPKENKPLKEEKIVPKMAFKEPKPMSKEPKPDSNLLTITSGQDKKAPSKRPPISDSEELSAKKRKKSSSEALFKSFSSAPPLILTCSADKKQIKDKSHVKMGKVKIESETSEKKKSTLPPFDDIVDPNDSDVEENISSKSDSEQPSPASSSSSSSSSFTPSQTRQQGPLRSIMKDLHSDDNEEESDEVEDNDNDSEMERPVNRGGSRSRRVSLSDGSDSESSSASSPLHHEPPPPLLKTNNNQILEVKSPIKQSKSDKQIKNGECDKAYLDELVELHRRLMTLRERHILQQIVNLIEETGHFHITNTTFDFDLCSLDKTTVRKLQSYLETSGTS
Vif A3G – HIV-1 Vif–A3G interaction blockers – biochemical, TR-FRET, GST-Vif 1-94, biotin-A3G peptide, dose response retest, primary screen (AID 1117319); TR-FRET GST-Vif / biotin-A3G peptide binding; higher % means a stronger effect; test concentration not given here; strong numbers were not always called active; inhibition, %, or IC50 in µM where a hit was titrated; 0.57% of 260,000 active;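 active = above the screen mean plus three standard deviations and confirmed in dose response; inconclusive = results disagree or hit not tested in dose response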;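 note: Vif residues 1-94 fused to GST binding biotinylated APOBEC3G peptide 110-148; 0% = full assay without inhibitor and 100% = GST in place of GST-Vif; retest series ran down from 100 µM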
RanGTP-Imp inh – disruptors of Ran-importin-beta complex formation – biochemical, FRET, CFP-Ran, YFP-importin-beta, homogeneous, primary screen. cell-free CFP-Ran/YFP-importin-beta FRET ratio. inhibition, % (test concentration not listed). 1.1% of 300,000 active. AID 2216;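 active = most replicates above 15%; inconclusive = exactly half above 15%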;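 note: 0% = DMSO wells and 100% = Ran loaded with GDP instead of GTP; wells of about 40 µL received 100 nL stock; the first replicate is given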
Calb FLC – affects C. albicans growth with fluconazole; C. albicans CaCi-2 (fluconazole-resistant clinical isolate) + fluconazole, Alamar Blue growth, 48 h; growth inhibition, % (test concentration not listed); 0.57% of 300,000 active; AID 1979;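 active = most replicates above 75%; inconclusive = exactly half above 75%; inactive = most below 75%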;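 note: all wells also contain fluconazole at 8 µg/ml as a sub-toxic cotreatment; 0% = median of DMSO wells and 100% = median of geldanamycin control wells; wells of about 8 µL received 7.5 nL stock; the first replicate is given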
Bfl-1 A1 inh – inhibitors of the anti-apoptotic protein A1, read as caspase activation; MEF A1-2A-BIM cells, Caspase-Glo 3/7 luminescence, 3 h; percent of clofoctol response, vehicle zero; caspase activation, % (no concentration beside the values); 0.066% of 330,000 active; AID 2462;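 active = over half of replicate activation scores above 10%, or exactly half above 10 with the replicate mean above 10; inconclusive = replicate mean below 10 yet half the replicates above 10; inactive = over half of replicates below 10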;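 note: wells of about 30 µL received 50 nL stock; many hits fall short of the cut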
Beta cell apopt – beta cell apoptosis inhibition | INS-1E cytokine-induced death, ATP luminescence, 48 h; percent of positive-control rescue, neutral wells zero | 0.8% of 300,000 active | protection from apoptosis, % (no concentration beside the values) | AID 435005;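 active = all replicates at 75% or more, or half of them and the mean; inconclusive = half reach 75% but not the mean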;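 note: 0% = cytokine-treated negative control wells and 100% = positive control rescue; higher means more ATP so stronger rescue from cytokine killing; wells of about 40 µL received 100 nL stock; the first replicate is given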
T cruzi repl – T. cruzi replication inhibition. T. cruzi beta-gal in NIH3T3, luminescence, 90 h. 1.4% of 300,000 active. inhibition, % (concentration not given with the values);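 active = mean inhibition across valid replicates above about 55%, limit read from the data; inconclusive = mean below that limit but half or more replicates reach it; inactive = mean below it, under half of replicates reach it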;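 note: signal also drops with host cell toxicity which is not excluded here; 0% = plate median of DMSO wells and 100% = zero luminescence signal; higher percent means less beta-gal luminescence so fewer parasites; stock transfer was 50 nL into about 50 µL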
LANA-H2A inh – blocks KSHV LANA binding to histone H2A/H2B; Q9QR71; cell-free LANA-H2A/H2B peptide, fluorescence polarization; inhibition, % (no concentration beside the values); 0.6% of 320,000 active; in the data active = inhibition mostly above about 10%, no sharp cut-off; inactive = mostly below about 6.7%;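 note: stock transfer was 7.5 nL into about 10 µL; 0% = median of vehicle wells and 100% = median of positive control wells; one replicate is shown; the record names a cut of 25% in any replicate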
* = called active by the depositor; ? = inconclusive; · = not tested or not shown.

SMILES | AF4-AF9 inh | Vif A3G | RanGTP-Imp inh | Calb FLC | Bfl-1 A1 inh | Beta cell apopt | T cruzi repl | LANA-H2A inh
Cc1ccc(NC(=O)NC2=NN(c3ccccc3)C(=O)/C2=C2/CCCN2C)cc1 | 0.9 | 1% | 3.4 | -7 | 0.3 | -4 | 3 | 0.8
CC1(C)CC(=O)C(C=NCC2CCN(C(=O)Nc3ccc(Cl)c(Cl)c3)CC2)=C(O)C1 | · | -7% | -2.0 | -4 | 1.8 | 4 | 22 | 5.9
O=C(Cn1c(=O)oc2cc(S(=O)(=O)N3CCCCC3)ccc21)N1CCCCC1 | 0.2 | · | -2.9 | 40 | 0.7 | 9 | 3 | -4.0
CCc1ccccc1NC(=S)N(Cc1ccc(C(=O)O)cc1)Cc1ccc(OC)c(OC)c1 | -1.8 | 2% | -6.2 | 24 | 0.7 | 2 | -3 | 0.4
CCC(=O)Nc1cc(-c2nn3c(C)nnc3s2)ccc1C | · | 1% | 3.5 | 2 | 0.1 | 1 | -6 | 1.5
CNC(=O)C(=O)NCC1OCCN1S(=O)(=O)c1ccc(C)cc1 (stereo not drawn) | -3.0 | · | -1.3 | 0 | -0.2 | -3 | -26 | 9.4
c1ccc(Nc2ncnc3sccc23)cc1 | -0.5 | · | 6.9 | -5 | -0.6 | 2 | -4 | 0.7
OC(C#CCN1CCCC1)(c1ccccc1)c1cccc(F)c1 (stereo not drawn) | · | · | 6.9 | -14 | 0.1 | · | -3 | 0.3
CCn1nnc(-c2ccccc2NC(=O)c2ccc(-n3cnnn3)cc2)n1 | · | 8% | -2.1 | 3 | 1.1 | 2 | -7 | 3.8
Cc1cc(NC(=O)CCC(=O)N(CC(=O)NC2CCCC2)Cc2ccc3c(c2)OCO3)no1 | -2.3 | -2% | 3.9 | -7 | -0.1 | · | 0 | -0.3
NC(=O)CSCc1cccc(Br)c1 | · | 11% | 4.2 | 5 | -0.1 | -11 | -12 | 1.1
CCC(C)Sc1nnc(CSc2nc(C)cc(C)n2)n1C (stereo not drawn) | -3.6 | 0% | -1.4 | -8 | -0.3 | -11 | 22 | 5.3
CCCOC(=O)C1=C(C)NC2=C(C(=O)CCC2)C1c1ccc(N(C)C)cc1 (stereo not drawn) | · | 9% | 0.0 | -3 | 1.3 | 4 | 27 | -3.4
CCn1c(CC(=O)Nc2ccc(C)cc2)nnc1SCC(=O)N1CCOCC1 | 3.6 | · | 0.8 | 3 | -1.0 | -4 | -1 | -2.7
CC1=C(C(N)=O)C(c2cccs2)NC(=S)N1 (stereo not drawn) | -7.8 | 0% | -0.4 | 29 | -0.5 | -5 | -7 | -3.4
COc1ccc(-c2c(-c3cccc(C)c3)oc3ccc(-c4ccc5c(c4)OCO5)cc23)cn1 | · | · | -1.3 | 0 | -0.2 | · | -3 | -1.2
CCOc1ccc(N2C(=O)CC(Sc3nc(C)cc(C)n3)C2=O)cc1 (stereo not drawn) | 0.3 | 15% | 4.2 | 5 | 0.7 | -6 | 16 | 2.2
COc1ccc(CN(C)C(=O)c2ccc3ccccc3n2)cc1F | -3.7 | · | -9.1 | -5 | -2.1 | · | -8 | 1.5
CCCOc1ccc(CNC(=O)CCC(=O)n2ncc3cc(C)ccc32)cc1 | 1.3 | · | -0.1 | 1 | -0.1 | 0 | -17 | 3.7
Cc1nn(-c2ccccc2)c(C)c1C(=O)NCCc1ccccc1 | -0.9 | · | 3.9 | 0 | 0.9 | 4 | 3 | -5.9
COc1ccc(CC(=O)N2CCN(C(=O)Cc3ccc(OC)cc3)CC2)cc1 | · | -2% | 2.0 | 1 | 0.2 | -7 | 4 | -2.6
CNC(=S)Nc1ccc(N2CCN(c3ccc(C(F)(F)F)cn3)CC2)nc1 | -0.6 | -3% | -0.9 | 2 | 1.0 | 27 | 28 | -1.8
Cc1cccc(C(=O)N2CCN(S(=O)(=O)c3ccc4c(c3)OCCCO4)CC2)c1[N+](=O)[O-] | 0.4 | -2% | -0.8 | -6 | 0.2 | · | 11 | -0.1
Cc1nc2ccc(NC(=O)N(C(C)C)C(C)C)cc2s1 | · | -6% | -1.3 | 5 | -0.6 | -13 | -26 | -1.0
O=C(NCCN1C(=O)S/C(=C/c2cccnc2)C1=O)c1cccs1 | 3.9 | 7% | · | · | 1.4 | -9 | · | 2.6
CCOCCCNC(=O)C1(O)c2cc(Br)ccc2NC(=O)N1c1ccc(C)c(C)c1 (stereo not drawn) | -3.3 | -2% | -0.6 | -1 | 0.2 | -4 | -9 | 9.7
NC(=O)c1snnc1-c1ccccc1 | -0.6 | 2% | -1.9 | -3 | -0.2 | -4 | -4 | -6.8
CCCCCCCSc1nnc(-c2ccccc2N)c(=O)[nH]1 | -5.8 | 9% | 2.4 | -2 | 0.7 | 1 | -3 | 0.9
CC(OC(=O)c1cc2ccccc2o1)C(=O)Nc1ccc(N2CCOCC2)cc1 (stereo not drawn) | 0.2 | -6% | · | · | -0.2 | -3 | · | 2.6
CCOc1ccc(NC(=O)CSc2ccccc2N)cc1 | -0.2 | 1% | 0.7 | -10 | ? | -1 | 1 | 0.5

Random excerpt: 2 records from the list
SMILES | AF4-AF9 inh | Vif A3G | RanGTP-Imp inh | Calb FLC | Bfl-1 A1 inh | Beta cell apopt | T cruzi repl | LANA-H2A inh
Cc1nn(-c2ccccc2)c(C)c1C(=O)NCCc1ccccc1 | -0.9 | · | 3.9 | 0 | 0.9 | 4 | 3 | -5.9
COc1ccc(CC(=O)N2CCN(C(=O)Cc3ccc(OC)cc3)CC2)cc1 | · | -2% | 2.0 | 1 | 0.2 | -7 | 4 | -2.6

(more compounds)
SMILES | AF4-AF9 inh | Vif A3G | RanGTP-Imp inh | Calb FLC | Bfl-1 A1 inh | Beta cell apopt | T cruzi repl | LANA-H2A inh
O=C(N/N=C/c1ccc(OCC(=O)N2CCOCC2)cc1)c1ccccc1Cl | 1.9 | -11% | -2.9 | 1 | 0.2 | -3 | -2 | -0.8
CCCS(=O)(=O)N1CCCC(C(=O)NCCCOCC)C1 (stereo not drawn) | · | -3% | -0.1 | -19 | -0.2 | 1 | -10 | 1.9
COc1ccc(N2CCN(CCCNC(=O)c3ccc(CS(=O)(=O)c4ccc(Cl)cc4)o3)CC2)cc1 | 22 | · | 0.4 | 0 | -1.8 | 1 | -15 | -1.0
CCOC(=O)Cc1c[nH]c2ccccc12 | · | 26% | 5.2 | -5 | -0.5 | -4 | -5 | -2.1
Cc1cccc(OCC(=O)NCC(=O)N/N=C/c2ccc(N(C)C)cc2)c1 | 1.0 | 3% | 1.7 | 4 | 1.3 | 1 | -11 | -1.3
CCOC(=O)c1c(-c2ccccc2)csc1NC(=O)c1cc(S(=O)(=O)N2CCOCC2)ccc1C | · | · | 7.9 | 41 | 0.7 | 14 | 48 | -2.8
CSc1ncccc1C(=O)OCc1ccccc1 | · | 3% | -2.4 | 3 | 0.4 | -2 | -9 | -0.7
O=C(O)c1ccc(CSCc2c(F)cccc2Cl)o1 | · | 4% | 0.7 | 24 | -0.1 | -2 | 6 | 0.1
COc1ccc(-c2cn3cc(Cl)ccc3n2)cc1OC | 5.6 | -7% | ? | 24 | -2.2 | 2 | 31 | -2.5
CCC(C)NS(=O)(=O)c1ccc(S(=O)(=O)N(CCc2ccc(OC)c(OC)c2)Cc2cccs2)cc1 (stereo not drawn) | -2.5 | · | 1.7 | 10 | -0.3 | 52 | 57* | -5.0
Cc1cccnc1NC1(C(F)(F)F)N=C(c2ccccc2)NC1=O (stereo not drawn) | · | 0% | -1.5 | 39 | 0.6 | -1 | -3 | -4.1
NC(=O)C1CN(S(=O)(=O)c2ccc(Cl)cc2F)c2ccccc2O1 (stereo not drawn) | 3.1 | -4% | 2.1 | 7 | -0.6 | -4 | -12 | 0.6
COc1cscc1C(N)=O | -2.4 | 8% | 1.6 | 4 | 0.0 | 2 | -10 | -5.2
Cc1ccc(-n2c(=O)c3c(n4cnnc24)-c2ccccc2CC32CCCCC2)cc1 | · | · | -1.3 | 8 | -0.1 | -1 | 10 | -3.6
CCN(CC)S(=O)(=O)c1cc(NC(=O)CNc2cccc(S(=O)(=O)N3CCCC3)c2)ccc1C | · | 3% | 1.3 | -5 | -0.3 | 89* | 0 | -3.7

Compound profiles (already shown). Order of screens: AF4-AF9 inh	Vif A3G	RanGTP-Imp inh	Calb FLC	Bfl-1 A1 inh	Beta cell apopt	T cruzi repl	LANA-H2A inh
Entry for Cc1ccc(NC(=O)NC2=NN(c3ccccc3)C(=O)/C2=C2/CCCN2C)cc1 = 0.9	1%	3.4	-7	0.3	-4	3	0.8
Entry for CCOc1ccc(N2C(=O)CC(Sc3nc(C)cc(C)n3)C2=O)cc1 (stereo not drawn) = 0.3	15%	4.2	5	0.7	-6	16	2.2
Entry for CC1(C)CC(=O)C(C=NCC2CCN(C(=O)Nc3ccc(Cl)c(Cl)c3)CC2)=C(O)C1 = ·	-7%	-2.0	-4	1.8	4	22	5.9
Entry for CCOC(=O)c1c(-c2ccccc2)csc1NC(=O)c1cc(S(=O)(=O)N2CCOCC2)ccc1C = ·	·	7.9	41	0.7	14	48	-2.8
Entry for CCCS(=O)(=O)N1CCCC(C(=O)NCCCOCC)C1 (stereo not drawn) = ·	-3%	-0.1	-19	-0.2	1	-10	1.9

Additional entries.
SMILES | AF4-AF9 inh | Vif A3G | RanGTP-Imp inh | Calb FLC | Bfl-1 A1 inh | Beta cell apopt | T cruzi repl | LANA-H2A inh
CCCN1CCC(=O)N([C@H](CO)CC(C)C)CC1 | -4.3 | · | -0.8 | -7 | -1.1 | -6 | -21 | 6.6
CN(C)Cc1c(O)ccc2c1O/C(=C\C=C\c1ccccc1)C2=O | 6.4 | ? | -284 | 5 | 0.9 | -27 | -10 | -7.2
CCc1nc2ccc(C(=O)Nc3ccc4c(c3)OCO4)cc2nc1CC | 0.2 | · | · | 3 | -6.7 | 3 | · | -2.6
O=C1Cc2ccccc2C(c2ccc(Cl)cc2)N1 (stereo not drawn) | -3.1 | · | 5.4 | 4 | 0.5 | -4 | 8 | 0.2
CCN(C(=O)c1sc(N)c(C#N)c1C)C1CCCCC1 | · | 0% | 0.6 | 0 | -0.1 | 2 | 2 | -3.0
S=c1[nH]nc(-c2cc(-c3ccccc3)n[nH]2)n1/N=C/c1ccccc1 | -2.1 | 8% | -1.3 | -4 | -0.7 | -7 | 5 | 4.0
Cc1ccc(N2C(=O)N(CC(=O)N3CCOCC3)C(=O)C2C)cc1 (stereo not drawn) | 1.7 | 3% | 5.2 | 23 | 0.6 | -2 | -14 | 2.6
COc1ccc(NS(=O)(=O)c2cc(NC(=O)COc3ccccc3F)ccc2OC)cc1 | -2.4 | 5% | · | · | 0.1 | 0 | · | -0.9
COc1c([N+](=O)[O-])c(=O)oc2ccccc12 | 1.4 | 6% | 3.2 | 37 | -0.6 | -4 | -24 | -1.2
O=C(OCC(=O)N1CCN(c2cccc(Cl)c2)CC1)c1ccco1 | 1.6 | -8% | · | · | -0.1 | -1 | · | -281
Cc1[nH]c2ccccc2c1/C=C/c1nc2ccccc2c(=O)n1CCO | 5.9 | -6% | 17* | 29 | 0.1 | 9 | 29 | 1.8
O=C(Cc1ccccc1)Nc1cccc(S(=O)(=O)N2CCCCCC2)c1 | -1.5 | · | · | · | -0.1 | 3 | · | 1.1
